# Source: PubChem BioAssay
# D2 agonist = Beta-Arrestin HTS for Positive Allosteric Modulators of the Human D2 Dopamine Receptor: Agonists | D(2) dopamine receptor (Homo sapiens), P14416 | 0.084% of 360,000 active | DiscoveRx PathHunter D2 beta-arrestin, luminescence, 90 min; 100% = 57 uM dopamine signal | activation, % (concentration not given with the values); in the data active = activation above about 40%; inconclusive = about 15% to 40%; inactive = below about 15%; further: compound concentration not given in the record; the text of the record calls up to 30% inactive
# Target sequence (P14416 whole entry, looked up): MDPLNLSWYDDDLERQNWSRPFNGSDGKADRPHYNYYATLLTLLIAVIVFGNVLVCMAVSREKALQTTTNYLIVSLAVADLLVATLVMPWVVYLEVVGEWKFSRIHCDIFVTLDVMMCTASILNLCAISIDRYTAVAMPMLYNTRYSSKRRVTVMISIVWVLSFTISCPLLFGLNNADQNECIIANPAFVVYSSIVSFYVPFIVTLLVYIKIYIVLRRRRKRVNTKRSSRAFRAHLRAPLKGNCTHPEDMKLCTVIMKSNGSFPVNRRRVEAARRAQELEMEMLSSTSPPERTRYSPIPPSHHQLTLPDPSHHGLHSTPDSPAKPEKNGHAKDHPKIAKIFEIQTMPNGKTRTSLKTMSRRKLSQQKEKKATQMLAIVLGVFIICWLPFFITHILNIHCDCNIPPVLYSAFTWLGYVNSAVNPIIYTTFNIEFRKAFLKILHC
#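 DiscoveRx PathHunter D2 beta-arrestin cells (2,100/well) attached overnight, then compound-stimulated 90 min at 37 C in HBSS/10 mM HEPES/0.1% Tween-20 buffer; beta-galactosidase complementation read by luminescence after 1 h at ambient temperature. Dopamine 57 uM final (EC100) as control.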
# Six1-Eya2 inh = qHTS Assay for Inhibitors of the Six1/Eya2 Interaction. Homeobox protein SIX1 (Homo sapiens) + Protein phosphatase EYA2 (Homo sapiens), …. AlphaScreen GST-Six1/His-Eya2 binding, biochemical; hits give low values; control for the full effect not named in the record. activity change, % (no concentration beside the values). 0.56% of 360,000 active; in the data active = activity change below about -65%; inconclusive = about -30% to -65%; inactive = above about -30%; further: on the % scale 0 is the no-effect control and ±100 the full control effect; compound concentration not given in the record
#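 Homogeneous AlphaScreen proximity assay pairing GST-Six1 with His-tagged Eya2 (added as 5X mix: 250 nM and 500 nM) in 50 mM Tris pH 8.0, 300 mM NaCl, 1 mM TCEP. Glutathione donor and nickel acceptor beads; 1 h, 37 °C, dark.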
# D2 potentiator = Beta-Arrestin HTS for Positive Allosteric Modulators of the Human D2 Dopamine Receptor: Potentiators | D(2) dopamine receptor (Homo sapiens), P14416 | DiscoveRx D2 beta-arrestin cells, luminescence, 90 min; 100% = 57 uM dopamine signal | potentiation, % (test concentration not listed) | 0.23% of 360,000 active; active = potentiation of 50% or more; inconclusive = 30% to 50%; inactive = 30% or less;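 further: compound concentration not given in the record; tested on top of an EC20 dose of dopamine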
#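 D2 cells co-treated with compound plus 50 nM dopamine (EC20) for 90 min at 37 deg C to detect potentiation. Beta-arrestin recruitment was read as enzyme-fragment luminescence after 1 h at ambient temperature. Full response was set by 57 uM dopamine.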
# PINK1 expr mod = A Quantitative High throughput Screen to Identify Chemical Modulators of PINK1 Expression. PINK1 immunofluorescence, high-content cytometry, 24 h. Potency, µM (titrated, usually from 76.6 µM), without a hit: at the highest dose activation (PINK1 increase), hits mostly activators. 0.2% of 410,000 active; active = well fitted activation curve with a large enough effect; inconclusive = small, poorly fitted or top-dose-only effect; inactive = flat fitted curve, though single readings scatter; cell line not stated here;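 further: potency means the concentration at half of the fitted maximal effect; % of control where 0% means no effect; nearly all actives have a fitted effect of over 65% in size; a mitochondrial uncoupler was the plate control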
#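 Stable cell line treated 24 h with compounds at 5 concentrations (CCCP controls), then fixed and immunostained for PINK1 plus nuclear and cell stains; PINK1 immunofluorescence quantified by laser-scanning microplate cytometry.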
# TRPML1 inh = qHTS for Inhibitors of the Human Mucolipin Transient Receptor Potential 1 (TRPML1). TRPML1-inducible cells, Ca2+ dye fluorescence, FDSS; hits give low values; inhibition of EC80 agonist-evoked calcium signal. AID 624415, 2012. Mucolipin-1 (Homo sapiens), Q9GZU1. activity change, negative = inhibition, % (concentration not given with the values). 0.02% of 390,000 active; in the data active means activity change below about -50%; inconclusive means about -30% to -50%; inactive means above about -30%;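 further: stimulus is agonist 54-4 at its EC80 concentration; on the % scale 0 is the no-effect control and ±100 the full control effect; compound concentration not given in the record; the text of the record puts the active cut at -80%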
# Target sequence (Q9GZU1 whole entry, looked up): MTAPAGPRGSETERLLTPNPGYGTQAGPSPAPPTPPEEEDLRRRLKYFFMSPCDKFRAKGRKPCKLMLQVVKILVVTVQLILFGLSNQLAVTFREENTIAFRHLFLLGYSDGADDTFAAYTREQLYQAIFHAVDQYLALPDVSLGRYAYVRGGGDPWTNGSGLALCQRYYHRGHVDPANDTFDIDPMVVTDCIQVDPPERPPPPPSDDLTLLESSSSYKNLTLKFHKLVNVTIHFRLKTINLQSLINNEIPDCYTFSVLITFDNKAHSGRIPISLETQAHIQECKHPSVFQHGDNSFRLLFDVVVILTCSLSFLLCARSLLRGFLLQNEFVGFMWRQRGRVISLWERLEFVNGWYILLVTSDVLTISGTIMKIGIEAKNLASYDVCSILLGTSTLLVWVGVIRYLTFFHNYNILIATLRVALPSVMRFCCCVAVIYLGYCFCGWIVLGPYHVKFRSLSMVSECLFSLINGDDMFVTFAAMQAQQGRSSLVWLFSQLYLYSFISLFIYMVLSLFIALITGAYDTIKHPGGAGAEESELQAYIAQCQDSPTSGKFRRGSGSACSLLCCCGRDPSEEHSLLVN
#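 Tet-induced TRPML1-DL cells loaded with Ca8 no-wash calcium dye were read kinetically on FDSS. Compound addition was followed by EC80 agonist 54-4 (4 uM final); inhibition was read over 110 s.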
# TRPML1 agonist = qHTS for Agonists of the Human Mucolipin Transient Receptor Potential 1 (TRPML1). 0.12% of 410,000 active. activation, % (no concentration beside the values). AID 624414, 2012. TRPML1-expressing cells, Ca2+ dye fluorescence, FDSS; host cell line not named in the record; reference of the full effect not given here. Mucolipin-1 (Homo sapiens), Q9GZU1; in the data active = activation above about 50%; inconclusive = about 30% to 50%; inactive = below about 30%; further: 0% is about no effect; the text of the record puts the active cut at 80%
#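 Cells: TRPML1-DL, 1X Tet inducer, ~16 h at 37 degrees C/5% CO2. Dye: ABD Ca8 no-wash + quencher, 45-90 min RT. Read: 10 s baseline, compound add, 110 s agonist phase; 54-4 EC80 (4uM final), 110 s antagonist phase.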
# Active calls of the source: *; ? = inconclusive; · = not tested or not shown; & = joins results of further samples; [ ] = another dose, or the depositor's remark. Outcome played no part in choosing rows; overall some 1% were active at least once.
# Values run as follows: D2 agonist, Six1-Eya2 inh, D2 potentiator, PINK1 expr mod, TRPML1 inh, TRPML1 agonist
> O=C(Nc1ccc(C(F)(F)F)cc1)C1=NN(C2CCS(=O)(=O)C2)C(=O)CC1 (stereo not given)
 : -2.7, -17, 2, 2.1%, 7, -0.3
> Cc1nnc(SCCn2c(N3CCCCCC3)nc3c2c(=O)[nH]c(=O)n3C)s1
 : -1.8, 0, -8, -4.8%, -7, 0.4
> CCn1c(CNc2ccc(Cl)cc2)nnc1SCC(=O)OC1CCCCC1
 : -2.2, -3, -24, 4.0%, -5, -0.4
> Cc1nn(-c2ccccc2)c(Cl)c1C(=O)N(C)CC(=O)Nc1cccc(F)c1
 : -6.3, -7, 1, 7.0%, 36, -0.5
> O=C(Nc1ccc2c(c1)C(=O)OC2)Nc1cccc2ccccc12
 : 4.4, -1, -9, -0.7%, 5, 0.4
> COCCNC(=O)c1cn(CCOC)c(=O)c2c1c1ccccc1n2C
 : 5.3, 5, -1, 0.8%, 0, 0.6
> CCOC(=O)C1(CCOc2ccccc2)CCN(Cc2ccc(C(=O)OC)cc2)CC1
 : -5.6, 2, -3, 9.1%, -10, 3.6
> CCOc1cc(CNC(=O)Cn2c(=O)c3cccn3c3ccc(F)cc32)cc(OCC)c1OCC
 : ·, ·, ·, 8.1%, -22, 1.9
> CCCOC(=O)c1ccc(NC(=O)Cn2nnc3sc4c(c3c2=O)CCC(C(C)(C)C)C4)cc1 (stereo not given)
 : ·, ·, ·, 4.4%, -22, 2.3
> COc1ccc(C2/C(=C(/O)c3ccc(C)cc3)C(=O)C(=O)N2c2ccccn2)cc1 (stereo not given)
 : -1.7, 1, -4, 3.1%, 5, -1.2
> CCCC(=O)N(Cc1cc2cc(C)ccc2[nH]c1=O)c1ccccc1OC
 : -2.8, -10, -4, 2.7%, -8, -0.2
> O=c1c2ccccc2[nH]c(=S)n1Cc1ccccc1Cl
 : 0.6, 0, -5, 17%, 11, -1.1
> N#CCCn1c(=O)n(CCC#N)c2ccccc21
 : -5.3, 5, 0, 0.1%, 5, -0.9
> CC1Cc2nc(SCC(=O)Nc3ccc(F)cc3F)n(C)c(=O)c2S1 (stereo not given)
 : 1.0, -5, -15, -5.1%[38.3 µM], 9, 0.0
> COc1ccc(-n2cc(CNC3CCOCC3)c(-c3cccc(F)c3)n2)cc1
 : -3.4, 13, 2, 5.4%, -11, 3.1

# Values run as follows: D2 agonist, Six1-Eya2 inh, D2 potentiator, PINK1 expr mod, TRPML1 inh, TRPML1 agonist
> CC(C)(C)C1CCC(OCC(O)CN2CCN(Cc3ccccc3)CC2)CC1 (stereo not given)
 : -1.3, -10, -6, 0.2%, 19, 1.3
> COCCn1cnc2c1c(=O)n(CC(=O)OCC(=O)NCC(F)(F)F)c(=O)n2Cc1ccccc1
 : -1.7, 12, 8, 1.8%, 4, 0.0
> CCOc1ccc([C@@H]2CC=C(C(=O)O)[C@H](c3cccc(Cl)c3)N2S(=O)(=O)c2ccc(C)cc2)cc1
 : -1.9, 3, -9, 0.3%, 5, -0.7
> COCCN(C(=O)COC(=O)c1ccc(C=O)cc1)c1c(N)n(Cc2ccccc2)c(=O)[nH]c1=O
 : -1.4, -1, 7, 0.6%, 0, 0.2
> CC(CNC(=O)CN1C(=O)c2cccnc2Oc2ccc(Cl)cc21)c1ccccc1 (stereo not given)
 : -7.1, -1, -7, 0.3%&0.4%, 11&21, 0.4&1.0
> NC(=O)C1(N2CCCCC2)CCN(C2CC(=O)N(CCc3ccccc3)C2=O)CC1 (stereo not given)
 : 2.6, 14, -1, -4.0%, -5, -0.3
> CN(C)c1cc(N)c2ccccc2n1 (tested in a mixture with another compound)
 : -2.1, -3, -6, -3.4%, 2, 0.9
> Cc1ccsc1CN(C)C(=O)CCc1nnc(COc2ccccc2)o1
 : -4.4, 8, -7, 0.0%, 10, 0.7
> COc1ccc([N+](=O)[O-])cc1N(CC(=O)N1CCCC1)S(C)(=O)=O
 : ?, 2, 2, -0.8%, -5, -0.1
> CCOC(=O)C1CCCN(C2CC(=O)N(c3ccc(C)cc3)C2=O)C1 (stereo not given)
 : -1.6, 2, 1, 0.7%[38.3 µM], -1, 0.0
> CC(C)(C)C(=O)Nc1c2c(nn1-c1ccc(F)cc1)CSC2
 : -1.5, 3, -12, 0.6%, 3, 1.1
> CN(C)CCNc1nc2c(c(=O)[nH]c(=O)n2C)n1CCCc1ccccc1
 : 1.3, -1, -9, 2.2%, 23, -0.5
> O=C(Cc1cccc(C(F)(F)F)c1)NCC(c1ccco1)N1CCCCC1 (stereo not given)
 : -1.3, -4, -12, 3.0%, 7, 0.5
> O=C(/C=C/c1ccc([N+](=O)[O-])cc1)Nc1cccc(C(=O)Nc2ccccc2C(=O)O)c1
 : ?, 0, 12, -0.7%, -7, -0.3
> COc1ccc(C(=O)Nc2ccc(C(=O)N3CCOCC3)cc2)cc1OC
 : -0.7, -3, -9, 1.1%, 1, -0.2

Compound	D2 agonist	Six1-Eya2 inh	D2 potentiator	PINK1 expr mod	TRPML1 inh	TRPML1 agonist
CCOC(=O)[C@]12CCC=C1N(Cc1ccc3c(c1)OCO3)C(=O)[C@H](CC(=O)N1CCSCC1)C2	·	0	·	-0.9%	·	-1.2
Cc1cc(=O)n2[nH]c(CCC(=O)O)nc2n1	1.2	2	3	-0.1%	?	1.0
Cc1cc(=O)oc2cc(O)cc(OCc3ccccc3)c12	0.0	-10	-16	?	-9	3.0
CC1(C)Cc2c(c(N3CCCC3)nc3sc(C(=O)Nc4ccccc4)c(N)c23)CO1	-5.3	6	?	3.7%	42	-0.6
NC(=O)c1ccccc1NC(=O)CSC1=NCCS1	-2.6	4	-6	-1.5%	-4	-0.5
COc1ccc(-n2c(O)c(/C=N/NS(=O)(=O)c3ccc(C)cc3)c3ccccc3c2=O)cc1OC	-3.6	-1	-2	-1.3%	-13	24
COc1cc(NC(=O)c2ccc(-c3cccnc3)c3ccoc23)cc(OC)c1OC	13	-7	2	1.9%	·	-0.5
CC(C)CCNC(=O)c1nn(Cc2ccccc2)c(=O)c2ccccc12	-4.4	7	-6	1.6%	-4	-0.4
Cn1c(=O)c2sccc2n2c(CCC(=O)Nc3ccc(F)cc3)nnc12	·	·	·	0.3%	-22	2.1
O=C(CNc1ccc(F)cc1Cl)Nc1cccc(S(=O)(=O)N2CCCCC2)c1	-0.5	-11	1	?	9	2.9
O=C(CSc1nnc(NC(=O)C2CCC2)s1)Nc1ccccc1Br	-0.8	1	2	?	4	-0.1
O=C(Nc1ccc(OC(F)(F)F)cc1)C1CCCN(S(=O)(=O)c2cccnc2)C1 (stereo not given)	0.1	-1	26	1.0%	-9	-1.0
Nc1nccnc1C(=O)OCC(=O)NNC(=O)c1ccccc1	-0.2	-9	7	-0.8%	-10	-0.7
CCc1nn2c(=O)cc(COC(=O)c3cccc(NC(=O)c4cccs4)c3)nc2s1	·	·	·	0.6%	-11	1.1
N#Cc1c(-c2ccccc2)nc(-c2ccncc2)[nH]c1=O	9.0	1	-4	1.2%	-2	1.2
COc1ccc(NS(=O)(=O)c2cccc(C(=O)OCC(=O)c3c(N)n(C)c(=O)n(C)c3=O)c2)cc1	2.9	?	11	0.4%	-12	0.5
Cc1ccc(-c2nc3c4ccccc4ccn3c2Cc2ccccc2)cc1	-11	0	-2	?	-7	1.2
COC(=O)C1=C(C)NC(=O)NC1c1ccc(N2CCC(c3ccccc3)=N2)cc1 (stereo not given)	3.3	-2	-23	-0.8%	1	-0.5
CN1CCN(c2oc(-c3ccc([N+](=O)[O-])cc3)nc2C#N)CC1	-5.6	-2	-14	3.4%	18	0.4
COc1ccc(Cn2c(=O)[nH]c3cc(C(=O)N4CCN(c5cccc(Cl)c5)CC4)ccc3c2=O)cc1	·	·	·	3.1%	26	-0.2
Cc1sc2ncnc(NCC(O)c3ccc([N+](=O)[O-])cc3)c2c1C (stereo not given)	-2.1	-6	-4	2.5%	7	0.6
Cc1sc2nc(CN3CCOCC3)nc(N3CCN(S(=O)(=O)c4ccccc4)CC3)c2c1C	-1.5	-9	-25	0.6%	-2	1.0
COc1ccc(N2CCN(C(=O)CCn3nnc4ccccc43)CC2)cc1	-3.8	-4	-1	-0.5%	6	-0.5
Cc1cc(Br)ccc1OCCOCCN1CCCC1	-0.8	13	-86	-0.2%	·	·
CCOC(=O)c1c(SCCN2CCCCC2)n(-c2ccccc2)c(=S)n(-c2ccccc2)c1=O	0.4	-3	15	1.6%	-1	0.3

Compound	D2 agonist	Six1-Eya2 inh	D2 potentiator	PINK1 expr mod	TRPML1 inh	TRPML1 agonist
Cc1ccc(-n2ncc3c(Nc4cccc(Cl)c4)ncnc32)c(C)c1	·	·	·	2.8%	5	0.9
COc1ccc(S(=O)(=O)N2CCN(C(=O)c3oc4ccccc4c3C)CC2)cc1	-0.7	-2	-4	-2.0%	11	1.9
O=C(CN1CCC(n2nnc3ccccc32)CC1)Nc1ccc2c(c1)CCC2	-0.5	-7	-29	-2.4%	-8	-0.1
O=C(N/N=C/c1ccc(O)cc1)c1nc(-c2ccccc2)n(-c2ccccc2)n1	0.1	-29	-9	-0.3%	-8	2.7
CCc1cc(=O)oc2cc(C)cc(OCC(=O)NCc3cccnc3)c12	-1.3	-1	-5	-0.9%	-13	-0.5
CCCNC(=O)c1ccc(Cn2cc(C(F)(F)F)ccc2=O)cc1	3.2	4	-6	0.7%	3	0.2
COC(=O)C1=C(C)N(Cc2ccccc2)C(=NCc2ccc(OC)cc2)N[C@H]1c1cccc(F)c1	-1.7	-4	-18	-1.7%	-2	-0.2
Cc1ccc(-c2nnn(CCOc3cccc(Br)c3)n2)cc1	0.6	9	-1	1.6%	-7	0.3

# Some of the entries so far, as labelled records.
SMILES: COC(=O)C1=C(C)N(Cc2ccccc2)C(=NCc2ccc(OC)cc2)N[C@H]1c1cccc(F)c1
  D2 agonist: -1.7
  Six1-Eya2 inh: -4
  D2 potentiator: -18
  PINK1 expr mod: -1.7%
  TRPML1 inh: -2
  TRPML1 agonist: -0.2
SMILES: COc1ccc(S(=O)(=O)N2CCN(C(=O)c3oc4ccccc4c3C)CC2)cc1
  D2 agonist: -0.7
  Six1-Eya2 inh: -2
  D2 potentiator: -4
  PINK1 expr mod: -2.0%
  TRPML1 inh: 11
  TRPML1 agonist: 1.9
SMILES: CCCNC(=O)c1ccc(Cn2cc(C(F)(F)F)ccc2=O)cc1
  D2 agonist: 3.2
  Six1-Eya2 inh: 4
  D2 potentiator: -6
  PINK1 expr mod: 0.7%
  TRPML1 inh: 3
  TRPML1 agonist: 0.2
